Bioassay records: PubChem, several laboratories
Bead autofluor = flagged as autofluorescent in microsphere protease counterscreen; AID 624483; compound autofluorescence counterscreen, microsphere flow cytometry; active compounds read high; fluorescence intensity (no concentration beside the values); hit rate 3.1% among 360,000;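 active = at least 3 SD above the mean of all compounds, about 16000 in these data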;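 note: 100 nL of 1 mM stock went into each well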
Sa RN4220 lethal = growth inhibition of S. aureus RN4220, primary screen, OD600. 16 h. inhibition, % (concentration not given with the values). hit rate 0.33% among 330,000;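 active = z-score of -3 or lower and OD600 up to 0.18 on both plates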;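 note: plate controls were untreated cells for no effect and reference antibiotic for full effect; stock transfer was 100 nL into about 80 µL; one replicate is shown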
ugtP null kill = growth inhibition of ugtP-null S. aureus, primary screen, RN4220 ugtP deletion, OD600; 16 h; some inactives read as strong as hits; growth inhibition, % (concentration not given with the values); hit rate 0.54% among 330,000; AID 1259309, 2017;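 active = z-score under -3 and OD600 up to 0.15 on both plates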;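 note: plate controls were untreated wells for no effect and antibiotic for full effect; wells of about 80 µL received 100 nL stock; the first replicate is given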
Mtb hypoxia inh = PubChem AID 1159583 | M. tuberculosis hypoxia-regulated fluorescent reporter, fluorescence | fluorescence inhibition, % (test concentration not listed) | hit rate 0.1% among 300,000;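 active = 35 to 45% if threefold the growth effect, above 45% if 1.5-fold the growth effect; inactive = the rest, general growth blockers included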;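 note: wells of about 50 µL received 100 nL stock; 0% = vehicle wells and 100% = reference inhibitor wells; whole bacteria with a GFP reporter of the hypoxia response; strong numbers were not always called active; many hits fall short of the cut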
PrP UTR inh = inhibition of PrP 5' UTR reporter expression | cell-based PrP 5' UTR mRNA reporter, plate reader | inhibition, % (test concentration not listed) | hit rate 0.35% among 340,000;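 active = every replicate at 50% or more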;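 note: 0 = median of the neutral control wells; tested in H4 reporter cells; numbers are from one replicate; inactives centre near -14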
BJeLR viability = MLPCN primary cell-based screen for lethality selective to Ras in HRASV12 cells; BJeLR (HRASV12) viability, CellTiter-Glo ATP luminescence, 48 h; reference of the scale not given here; inhibition, % (concentration not given with the values); hit rate 0.17% among 300,000;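 active = replicate mean above 50%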;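 note: 50 nL library stock added to about 25 µL; numbers are from one replicate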
Mtb hypoxia inh growth = also measured in Mtb hypoxia inh; calls as there; growth inhibition, %; measured here: M. tuberculosis growth (absorbance);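 0% = vehicle and 100% = reference antibiotic; read after six days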
An asterisk follows results filed as active; nt = no result given. Hits appear at their usual frequency. About 4% of those tested had a hit in this group.

SMILES | Bead autofluor | Sa RN4220 lethal | ugtP null kill | Mtb hypoxia inh | Mtb hypoxia inh growth | PrP UTR inh | BJeLR viability
Cc1csc(NC(=O)Cc2ccccc2[N+](=O)[O-])n1 | 4048 | 2.5 | -6 | 3 | 8 | -29 | -7
NC(=O)c1ccc(-n2nnnc2SCC(=O)NC2CCCCC2)cc1 | 3577 | nt | nt | nt | nt | -17 | -11
CC(=NNC(N)=S)C1C2C3CC4C5CC(C42)C1C53 (stereo unspecified) | nt | 5.6 | 5 | 3 | 2 | nt | nt
Cn1cc(Br)c(-c2cccc(N3C(=O)CCCC3=O)c2)n1 | nt | 3.7 | 3 | -9 | 4 | -15 | 2
FC(F)(F)c1nc(N2CCN(c3ccccc3)CC2)nc2c1CCCCC2 | 4584 | -0.5 | 57 | 7 | 4 | -1 | 0
O=[N+]([O-])c1ccc2nc(SCc3cn4cc(Cl)ccc4n3)[nH]c2c1 | 2512 | 4.5 | -12 | 1 | -2 | -22 | -6
Cc1ccc(CN2CCC(C(=O)Nc3ccc(Oc4cccnc4)cc3)CC2)cc1 | 6107 | 0.1 | 1 | -1 | 6 | -16 | 6
CCCCOc1ccc(C(=O)N2CCN(c3ncccn3)CC2)cc1 | nt | 6.7 | 0 | -5 | -2 | -16 | 5
Cc1nc(NC(=O)CSc2nccn2C)sc1C(=O)N(C)C | 5425 | 1.2 | 0 | -1 | -6 | -23 | -9
COc1cc(C(=O)Oc2ccccc2N)cc(OC)c1OC | 6559 | -0.1 | 4 | nt | nt | -19 | -1
O=C1N(Cc2ccccc2)CC2(Br)COCOC12O (stereo unspecified) | 3950 | 8.5 | 3 | 10 | 7 | -22 | nt
Cc1c(NS(=O)(=O)c2ccc(N3CCN(C)CC3)c([N+](=O)[O-])c2)c(=O)n(-c2ccccc2)n1C | 4804 | -0.7 | 2 | -10 | 2 | -14 | 6
CC1CC(C)CN(C(=O)CSc2nnc(-c3ccc(Cl)s3)o2)C1 (stereo unspecified) | 6373 | 4.4 | -2 | nt | nt | -2 | 0
Cc1cc(F)ccc1S(=O)(=O)Nc1ncnc2scc(-c3ccc(F)cc3)c12 | 2729 | 15 | -15 | 7 | 3 | -4 | -8
COc1ccc(COC(=O)Nc2cc3c(C(F)(F)F)nn(C)c3s2)cc1 | 3676 | 2.5 | 1 | 10 | 3 | 3 | -1
O=C(c1ccc(NC2=NC3CS(=O)(=O)CC3S2)cc1)N1CCN(c2ccccc2F)CC1 (stereo unspecified) | 4908 | 5.4 | 1 | -4 | -2 | -11 | -3
O=C(NCN1C(=O)C2C3C=CC(C3)C2C1=O)Nc1ccccn1 (stereo unspecified) | 3046 | 2.5 | 0 | 7 | 3 | 7 | 4
Oc1c(C=Nc2ncn[nH]2)ccc2ccccc12 | nt | 3.5 | 5 | 10 | 7 | nt | nt
O=C(CN1C(=O)NC(c2ccccc2)(c2ccccc2)C1=O)NCc1cccs1 | 3488 | 1.0 | 0 | 1 | 2 | -16 | nt
Cc1cc(/C=N/N2CCN(C)CC2)c(C)n1-c1ccc(Cl)cc1 | 3465 | nt | nt | nt | nt | -8 | 5
CCCCSc1nc2c(c(=O)n1CC)SC(C)C2 (stereo unspecified) | 5471 | 6.5 | -1 | 10 | 5 | -6 | -11
COc1ccccc1[C@@H]1C(c2cccc(Cl)c2)=NN(c2ccc(Br)cc2)[C@H]1C(=O)N1CCOC1=O | 3835 | nt | nt | nt | nt | -45 | -4
Clc1ccc2c(c1)C(C1=NCCN1)c1ccccc1CS2 (stereo unspecified) | 2846 | 3.2 | -3 | 4 | 1 | 22 | 32
O=C(Nc1cc([N+](=O)[O-])ccc1O)c1cccc(C(=O)Nc2cc([N+](=O)[O-])ccc2O)c1 | 4222 | 4.1 | 3 | 10 | 6 | -15 | 0
CCc1c(C)nc(N2CCN(c3cccc(OC)c3)CC2)[nH]c1=O | 3569 | 4.0 | 11 | 9 | 10 | -3 | 6
O=C1NC(=O)C(=Cc2ccc(Oc3ccc([N+](=O)[O-])cc3)cc2)C(=O)N1 | 4656 | 5.1 | 6 | 11 | 4 | -31 | 2
O=C(NC1CC1)C1CCN(Cc2cnn(-c3ccccc3)c2-n2cccc2)CC1 | 23345* | 0.0 | -7 | -7 | 2 | 1 | 2
COc1ccccc1C(=O)NC(CCSC)C(=O)NCC(c1cccs1)N(C)C (stereo unspecified) | 6332 | 4.9 | 7 | 5 | -1 | -21 | 1
CCCCn1c(N)c(N(CC(C)C)C(=O)c2ccc3c(c2)NC(=O)C(C)S3)c(=O)[nH]c1=O (stereo unspecified) | 5440 | 0.5 | 2 | 2 | 5 | -9 | -10
CNC(=O)N1c2ccccc2CCc2ccccc21 | 3284 | 1.1 | 2 | 5 | -1 | 1 | -1
Cc1cc(C)cc(OCc2nc(-c3cccnc3)no2)c1 | 5701 | 1.5 | 5 | -8 | -8 | -46 | 9
CN(c1ccccc1C(=O)NCC1CCCO1)S(C)(=O)=O (stereo unspecified) | 9669 | 2.9 | 4 | 7 | 3 | -13 | -5
COc1ccc(NC(=O)C2(S(=O)(=O)c3ccc(C)cc3)CC2)cc1 | 5140 | 2.8 | 1 | 1 | -2 | -11 | -4
O=C(NC1CCCN(Cc2ccccc2F)C1)c1cccs1 (stereo unspecified) | 6244 | 0.6 | 1 | 9 | 1 | 2 | 10
COc1ccc(C(=O)N/N=C/c2ccc(OC)c(COc3ccc(F)cc3)c2)cc1 | 5580 | nt | nt | nt | nt | -26 | -6
COc1ccc(CCn2c(O)c(/C=N/N3CCOCC3)c(=O)[nH]c2=O)cc1OC | nt | 1.9 | -2 | -4 | -5 | nt | -6
CCCOc1ccc(C(=O)CCN2CCN(C(=O)OCC)CC2)cc1 | 4727 | 6.4 | 15 | 13 | 9 | -23 | nt
COc1cccc(CNc2cc(C)ccn2)c1O | 3590 | 2.7 | -2 | 4 | 6 | -47 | -11
COc1ccc(NC(=O)Cn2nnc(-c3ccccc3NC(=O)c3ccco3)n2)cc1 | 2785 | 5.3 | -6 | 6 | 10 | -26 | 28
Cc1cc(=O)oc2cc(NC(=O)c3c(Cl)cnn3C)ccc12 | 5167 | 0.7 | 3 | -1 | -4 | 0 | -5
Cc1cccc(NC(=S)Nc2ccc(N3CCOCC3)cc2)c1C | 2486 | 1.1 | 1 | 15 | 10 | 5 | 1
CCOC(=O)c1c(NC(=O)C2CCN(S(=O)(=O)c3cccs3)CC2)sc(C)c1C | 4158 | -1.2 | 13 | nt | nt | 6 | -3
Cc1cc(/C=N/NC(=O)C(O)(c2ccccc2)c2ccccc2)c(C)n1-c1cccc(C(=O)O)c1 | 4692 | nt | nt | nt | nt | -22 | 14
CC1CC(C)CN(S(=O)(=O)c2ccc(C(=O)N3CCOCC3)cc2)C1 (stereo unspecified) | 4247 | 5.9 | 12 | 10 | 1 | -26 | 2
Cc1ccc(Nc2ncccc2C(=O)O)cc1C | 6436 | nt | nt | nt | nt | -27 | 7
CCOC(=O)C1CCCN(c2c(NCCN(CC)c3ccccc3)c(=O)c2=O)C1 (stereo unspecified) | 6011 | 6.5 | 14 | 3 | 1 | -9 | -1
CCN(CC)CCNc1nc2cc(OC)c(OC)cc2c2nc(-c3ccccc3)nn12 | 6730 | 16 | -15 | -65 | 21 | -15 | -11
CN(Cc1ccccc1)S(=O)(=O)c1ccc(NC(=O)C2CCCCC2C(=O)O)cc1 (stereo unspecified) | nt | 6.4 | 8 | 6 | -5 | -14 | nt
O=c1c2ccccc2c(C=Nc2cccc(S(=O)(=O)NC3=NCCCCC3)c2)c(O)n1Cc1ccccc1 | 3628 | 4.5 | 6 | 13 | 13 | 14 | 3
COc1cc(C(=O)NCC(c2ccco2)N2CCCC2)ccc1OCc1ccccc1 (stereo unspecified) | 7219 | -2.5 | 6 | 8 | 7 | -3 | nt
CN1CCN(C=Nc2c(C#N)cnn2-c2ccccc2)CC1 | nt | 2.2 | 1 | 8 | 19 | nt | nt
COc1c(Br)cc([N+](=O)[O-])c(OC)c1C(=O)NC(=O)Nc1c(Cl)cccc1Cl | 5442 | 18 | 9 | 1 | 2 | -7 | -1
Cc1cccc(NC(=O)C2Cc3ccccc3O/C2=N\O)c1 (stereo unspecified) | 4153 | nt | nt | nt | nt | -41 | 5
CC(CC(=O)Nc1cccc(S(=O)(=O)N2CCCCC2)c1)c1ccccc1 (stereo unspecified) | 8168 | -0.2 | 3 | 4 | 6 | -13 | nt
CN1c2ccccc2C(O)=C(C(=S)Nc2ccccc2)S1(=O)=O | 3210 | 30 | 5 | 12 | 4 | 1 | 1
Cc1cc(C)c2sc(NC(=O)CN3C(=O)CCC3=O)nc2c1 | 3948 | -1.9 | -2 | -6 | 12 | -29 | 6
N=C(N)c1ccc(/C=C/c2ccc(C(=N)N)cc2O)cc1 | 5204 | 20 | -4 | 21 | -2 | -11 | -5
CC(=O)Nc1ccc(N(C(=O)CNC(=O)c2ccco2)C(C(=O)NCc2ccco2)c2ccccc2F)cc1 (stereo unspecified) | 2545 | 0.0 | 2 | 4 | 3 | -16 | 0
O=C(c1cc(-c2cccs2)on1)N1CCN(c2ccccc2)CC1 | 8264 | 2.7 | -4 | 8 | 4 | -6 | 10
CCOC(=O)c1c(C)oc2cc(Cl)c(O)c(CN(C)C)c12 | 4309 | 2.4 | 6 | 7 | -5 | -9 | -5

Results in Bead autofluor (3 entries from above):
mol | Bead autofluor
CN1c2ccccc2C(O)=C(C(=S)Nc2ccccc2)S1(=O)=O | 3210
COc1c(Br)cc([N+](=O)[O-])c(OC)c1C(=O)NC(=O)Nc1c(Cl)cccc1Cl | 5442
Cc1cccc(NC(=O)C2Cc3ccccc3O/C2=N\O)c1 (stereo unspecified) | 4153

Structural class, those above with an NH in an aromatic ring.
SMILES | Bead autofluor | Sa RN4220 lethal | ugtP null kill | Mtb hypoxia inh | Mtb hypoxia inh growth | PrP UTR inh | BJeLR viability
O=[N+]([O-])c1ccc2nc(SCc3cn4cc(Cl)ccc4n3)[nH]c2c1 | 2512 | 4.5 | -12 | 1 | -2 | -22 | -6
Oc1c(C=Nc2ncn[nH]2)ccc2ccccc12 | nt | 3.5 | 5 | 10 | 7 | nt | nt
CCc1c(C)nc(N2CCN(c3cccc(OC)c3)CC2)[nH]c1=O | 3569 | 4.0 | 11 | 9 | 10 | -3 | 6
CCCCn1c(N)c(N(CC(C)C)C(=O)c2ccc3c(c2)NC(=O)C(C)S3)c(=O)[nH]c1=O (stereo unspecified) | 5440 | 0.5 | 2 | 2 | 5 | -9 | -10
COc1ccc(CCn2c(O)c(/C=N/N3CCOCC3)c(=O)[nH]c2=O)cc1OC | nt | 1.9 | -2 | -4 | -5 | nt | -6

(cont.)
SMILES | Bead autofluor | Sa RN4220 lethal | ugtP null kill | Mtb hypoxia inh | Mtb hypoxia inh growth | PrP UTR inh | BJeLR viability
Cc1cc(C(=O)Nc2sc3c(c2C#N)CCC(C(C)(C)C)C3)no1 (stereo unspecified) | 8132 | 6.1 | 7 | 3 | -4 | -15 | -13
CC(C)c1ccccc1NC(=S)NC1CCCCC1 | 4165 | 0.1 | -10 | -14 | -6 | -18 | 1
CCC(CC)C(=O)NCc1ccc2c(c1)cc(C)n2C | 3772 | -4.8 | -11 | -17 | -1 | -27 | -4
COC(=O)c1cn(-c2ccccc2)c(C)c1C(=O)OC | 4685 | 6.6 | 10 | 18 | 9 | -4 | 7
N#CCCN(/N=C/c1cccnc1)C1=NS(=O)(=O)c2ccccc21 | 2450 | nt | nt | nt | nt | -15 | 3
